Screening results (PubChem)
FGF22 binding = FGF22 (human) thermal shift binding | Q9HCT0 | recombinant FGF22 thermal shift, SYPRO orange fluorescence; percent of sucrose octasulfate shift, DMSO zero | calls only at 9.99 µM | 340,000 tested, 1.5% active | AID 651658;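 active = melting point raised past a set limit in the mean and every replicate; three in four hits are not shown here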
Target sequence (Q9HCT0 whole entry, looked up): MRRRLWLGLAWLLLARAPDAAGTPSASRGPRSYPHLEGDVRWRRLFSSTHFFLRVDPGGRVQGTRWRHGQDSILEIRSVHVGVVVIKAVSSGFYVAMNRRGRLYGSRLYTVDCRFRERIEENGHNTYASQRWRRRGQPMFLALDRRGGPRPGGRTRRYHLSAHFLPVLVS
Ecoli rRNA inh = inhibitors of bacterial rRNA selective over humanized ribosomes; E. coli WT GFP vs humanized-ribosome RFP mutants, fluorescence, 24 h; hits give low values; DMSO median 0, no signal -100; GFP signal change (wild-type ribosome), % (test concentration not listed); 350,000 tested, 1.6% active;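 active = significant combined selectivity score with lowered wild-type GFP, culture density cut under 30%, mutant RFP and density less affected; inactive = any of these conditions unmet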; also: one replicate is shown; some compounds called inactive have numbers as strong as hits
Ecoli rRNA inh OD600 = recorded beside Ecoli rRNA inh, whose call it bears; OD600 change, %; measured here: OD600 growth;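 optical density of the mix in the first replicate; 0 = DMSO median and -100 = no signal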
Ecoli rRNA inh RFP = also measured in Ecoli rRNA inh; calls as there; RFP signal change, %; measured here: RFP humanized mutant strains;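 first replicate; 0 = DMSO median and -100 = no signal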
Starred values were filed as active, the others as inactive; i = inactive. An excerpt. The share of hits here may be higher or lower than overall.

Sample of the layout:
SMILES | FGF22 binding | Ecoli rRNA inh | Ecoli rRNA inh OD600 | Ecoli rRNA inh RFP
C[C@@H]1CN([C@H](C)CO)S(=O)(=O)c2ccc(-c3ccc(C(=O)N(C)C)cc3)cc2O[C@@H]1CN(C)C(=O)Cc1ccccn1 | i | 5 | 6 | -7.6
C[C@H](CO)N1C[C@H](C)[C@H](CN(C)C(=O)Nc2cccc3ccccc23)OCCCC[C@H](C)Oc2ccc(NC(=O)CCCN(C)C)cc2C1=O | i | -7 | -11 | -2.6
CN1CCCCN2[C@H](CO)[C@@H](c3ccc(C#Cc4ccccc4F)cc3)[C@H]2C1 | i | -5 | 0 | 0.6

This part in full, from the start:
SMILES | FGF22 binding | Ecoli rRNA inh | Ecoli rRNA inh OD600 | Ecoli rRNA inh RFP
C[C@@H]1CN([C@H](C)CO)S(=O)(=O)c2ccc(-c3ccc(C(=O)N(C)C)cc3)cc2O[C@@H]1CN(C)C(=O)Cc1ccccn1 | i | 5 | 6 | -7.6
C[C@H](CO)N1C[C@H](C)[C@H](CN(C)C(=O)Nc2cccc3ccccc23)OCCCC[C@H](C)Oc2ccc(NC(=O)CCCN(C)C)cc2C1=O | i | -7 | -11 | -2.6
CN1CCCCN2[C@H](CO)[C@@H](c3ccc(C#Cc4ccccc4F)cc3)[C@H]2C1 | i | -5 | 0 | 0.6
COc1ccc(S(=O)(=O)Nc2ccc3c(c2)C(=O)N([C@@H](C)CO)C[C@@H](C)[C@@H](CN(C)C(=O)Cc2ccccc2)OCCCC[C@@H](C)O3)cc1 | i | -2 | 1 | 0.4
CC(C)NC(=O)N(C)C[C@H]1OCCCC[C@@H](C)Oc2ccc(NS(=O)(=O)c3cn(C)cn3)cc2C(=O)N([C@@H](C)CO)C[C@@H]1C | i | 11 | 4 | 2.3
CC(C)(C)n1nc(C2CC2)c(Br)c1NC(=O)c1ccc(Cl)cc1 | i | 1 | 5 | -2.5
Cc1noc(C)c1NC(=O)Nc1cccc2c1O[C@H](CN(C)C(=O)NC1CCCCC1)[C@H](C)CN([C@H](C)CO)C2=O | i | 1 | 9 | -2.0
COC(=O)C[C@@H]1C[C@H]2c3cc(NC(=O)Nc4ccc(OC)cc4)ccc3O[C@H]2[C@@H](CO)O1 | i | 0 | 6 | 2.0
O=C(C[C@@H]1C=C[C@H](NC(=O)Nc2cccc(F)c2)[C@H](CO)O1)NCC1CCCCC1 | i | -6 | -10 | 0.1
COc1cccc(NC(=O)Nc2ccc3c(c2)OC[C@H](C)NC[C@H](C)[C@@H](OC)CN(C)C3=O)c1 | i | -4 | -5 | 0.4
CCCNC(=O)N1[C@@H](C#N)[C@@H](c2ccc(C3=CCCCC3)cc2)[C@@H]1CO | i | -2 | -45 | 11
CC(C)NC(=O)Nc1cccc2c1O[C@H](CN(C)Cc1ccc(C(=O)O)cc1)[C@H](C)CN([C@@H](C)CO)C2=O | i | 5 | 3 | 1.1
COc1cccc(NC(=O)N[C@@H]2CC[C@H](CC(=O)Nc3ccc(-c4ccccc4)cc3)O[C@H]2CO)c1 | i | -53 | -71 | -11
COc1cccc(S(=O)(=O)N(C)C[C@H]2Oc3ncc(C#CC(C)C)cc3C(=O)N([C@H](C)CO)C[C@@H]2C)c1 | i | -11 | -17 | 3.7
CN1C[C@H]2[C@@H](c3ccccc31)[C@@H](CO)N2Cc1ccccc1F | i | -2 | -10 | -0.3
C[C@@H]1CN([C@@H](C)CO)C(=O)c2cc(Br)cnc2O[C@@H]1CN(C)Cc1ccncc1 | i | 1 | 8 | -4.4
CC(C)NC(=O)Nc1ccc2c(c1)C(=O)N([C@@H](C)CO)C[C@@H](C)[C@@H](CN(C)S(=O)(=O)c1cccs1)OCCCC[C@@H](C)O2 | i | -4 | -7 | -0.4
C[C@H](CO)N1C[C@H](C)[C@H](CN(C)Cc2ccccc2)Oc2c(NC(=O)Nc3ccc(C(F)(F)F)cc3)cccc2C1=O | i | 2 | -30 | 6.7
O=C(Nc1cc(F)ccc1F)N[C@@H]1CC[C@H](CCn2cc(C3CCCCC3)nn2)O[C@@H]1CO | i | -11 | -20 | 5.3
C[C@@H]1CN([C@@H](C)CO)C(=O)Cc2cc(NS(=O)(=O)c3ccccc3)ccc2O[C@H]1CN(C)S(=O)(=O)c1ccccc1 | i | 1 | -14 | -1.5
C[C@H](CO)N1C[C@H](C)[C@H](CN(C)Cc2ccc(Cl)c(Cl)c2)Oc2ccc(NS(=O)(=O)c3ccccc3)cc2C1=O | i | 0 | -20 | 18
O=C(c1ccncc1)N1C[C@@H]2[C@H](c3ccccc31)[C@@H](CO)N2C(=O)Nc1ccc(F)cc1 | i | 2 | 1 | 1.1
CS(=O)(=O)Nc1ccc2c(c1)[C@@H]1C[C@H](CC(=O)NCCc3ccccc3)O[C@H](CO)[C@@H]1O2 | i | -2 | 4 | -0.1
C[C@@H]1CN([C@@H](C)CO)C(=O)c2c(c3ccccc3n2C)-c2ccccc2CO[C@@H]1CN(C)Cc1ccc(Cl)c(Cl)c1 | i | 4 | 18 | -4.4
C[C@@H]1CN([C@@H](C)CO)C(=O)c2cccc(NC(=O)C3CC3)c2O[C@H]1CN(C)C(=O)Nc1ccc(F)cc1 | i | -1 | 4 | -0.7
C[C@@H]1CN([C@@H](C)CO)C(=O)c2cc(NC(=O)Cc3cn(C)c4ccccc34)ccc2O[C@H]1CN(C)C | i | 1 | -6 | 0.6
Cc1ccc(S(=O)(=O)N[C@@H]2CC[C@@H](CCNC(=O)c3ccccc3F)O[C@H]2CO)cc1 | i | 2 | 6 | -1.7
COc1ccc(NC(=O)Nc2ccc3c(c2)CC(=O)N([C@@H](C)CO)C[C@H](C)[C@H](CN(C)Cc2ccc(C(=O)Nc4ccccc4N)cc2)O3)cc1 | i | 4 | -1 | 0.5
O=C(Nc1cccc(Cl)c1)N1C[C@H]2[C@@H](c3ccccc31)[C@H](CO)N2C(=O)c1cccnc1 | i | -9 | 5 | 1.0
CN1C(=O)c2cc(NC(=O)c3ccc(F)cc3)ccc2OC[C@@H]2O[C@H](CC(=O)NCC3CCCCC3)CC[C@H]21 | i | -4 | -20 | 14
C[C@@H]1CN([C@@H](C)CO)C(=O)c2cc(C#Cc3ccccc3F)cnc2O[C@@H]1CN(C)C(=O)Cc1ccncc1 | i | 2 | -1 | 0.6
COc1ccc(NC(=O)Nc2ccc3c(c2)C(=O)N([C@@H](C)CO)C[C@H](C)[C@H](CN(C)C(=O)Nc2ccc4c(c2)OCO4)OCCCC[C@@H](C)O3)cc1 | i | 2 | -1 | -6.3
Cc1ccc(S(=O)(=O)N(C)C[C@H]2OCCCC[C@H](C)Oc3ccc(NC(=O)CCCN(C)C)cc3C(=O)N([C@@H](C)CO)C[C@H]2C)cc1 | i | -2 | -10 | 3.0
Cc1ccc(S(=O)(=O)Nc2ccc3c(c2)C(=O)N([C@H](C)CO)C[C@@H](C)[C@H](CN(C)Cc2ccc(C(F)(F)F)cc2)OCCCC[C@H](C)O3)cc1 | i | -2 | -11 | 5.7
CN1CCN(C(=O)C[C@@H]2C[C@@H]3c4cc(NC(=O)Nc5ccccc5F)ccc4O[C@@H]3[C@@H](CO)O2)CC1 | i | 1 | 1 | -1.6
Cc1noc(C)c1S(=O)(=O)Nc1ccc2c(c1)CC(=O)N([C@H](C)CO)C[C@@H](C)[C@@H](CN(C)Cc1ccc(Oc3ccccc3)cc1)O2 | i | 3 | -12 | 1.7
O=C(C[C@@H]1C[C@H]2c3cc(NC(=O)CC4CC4)ccc3O[C@H]2[C@H](CO)O1)NCCc1ccccc1 | i | -2 | -7 | 1.0
COc1ccccc1-c1ccc2c(c1)O[C@H](CN(C)CC1CCOCC1)[C@@H](C)CN([C@H](C)CO)S2(=O)=O | i | -7 | -17 | 8.8
O=C(C[C@@H]1CC[C@H]2[C@@H](COC[C@@H](O)CN2Cc2ccc(C(F)(F)F)cc2)O1)N1CCc2ccccc2C1 | i | -1 | -6 | 4.8
CC(C)NC(=O)Nc1ccc2c(c1)CC(=O)N([C@H](C)CO)C[C@H](C)[C@@H](CN(C)C(=O)NC(C)C)O2 | i | 4 | 8 | -1.0
CCCN1[C@@H]2c3ccc(-c4ccc(OC)cc4)c(=O)n3C[C@@H]2[C@@H](CO)[C@@H]1C(=O)NCC | i | -2 | -6 | -1.0
CC(C)NC(=O)N[C@@H]1CC[C@H](CCNS(=O)(=O)c2ccc(Cl)cc2)O[C@@H]1CO | i | 4 | 5 | -1.1
COc1ccc(C#Cc2ccc([C@@H]3[C@H](CO)N4CCCCN(C)C[C@@H]34)cc2)cc1 | i | -2 | 6 | -2.5
C[C@@H]1CN([C@H](C)CO)C(=O)c2cc(NC(=O)Nc3ccc(F)cc3)ccc2O[C@H]1CN(C)Cc1ccncc1 | i | -7 | -2 | -0.7
COc1ccc(S(=O)(=O)Nc2cccc3c2O[C@H](CN(C)CC2CC2)[C@@H](C)CN([C@@H](C)CO)C3=O)cc1 | i | -2 | 1 | -1.5
N#C[C@@H]1[C@@H](c2ccc(/C=C/c3ccccc3)cc2)[C@@H](CO)N1C(=O)C1CC1 | i | 1 | 4 | 0.0
CC(C)NC(=O)Nc1cccc2c1O[C@@H](CN(C)Cc1ccc(Oc3ccccc3)cc1)[C@@H](C)CN([C@H](C)CO)C2=O | i | 4 | -1 | 3.1
C[C@@H]1CN([C@H](C)CO)C(=O)c2cc(N(C)C)ccc2O[C@@H]1CN(C)Cc1ccc2c(c1)OCO2 | i | 1 | 3 | 0.1
CN1CCCCN2[C@@H](CO)[C@H](c3ccc(Br)cc3)[C@@H]2C1 | i | 7 | 11 | -1.4
C[C@@H]1CN([C@@H](C)CO)C(=O)c2cc(NC(=O)Cc3ccccc3)ccc2O[C@H]1CN(C)C(=O)Nc1ccc(F)cc1 | i | 1 | -3 | -0.1
COC(=O)c1cc2c(c3c4cc(F)ccc4n(S(=O)(=O)c4ccccc4)c13)C(=O)N(C)C2 | i | -7 | -7 | 4.5
O=S(=O)(c1ccccc1)N1C[C@@H]2[C@H](c3ccccc31)[C@H](CO)N2Cc1ccccn1 | i | -3 | -3 | 0.9
CCCN(C)C[C@H]1OCCCC[C@@H](C)Oc2ccc(NC(=O)Nc3ccc(OC)cc3)cc2C(=O)N([C@H](C)CO)C[C@@H]1C | i | 1 | 3 | -1.6
COc1cccc(-c2ccc3n(c2=O)C[C@H]2[C@H](CO)[C@@H](C(=O)N4CCCCC4)N[C@@H]32)c1 | i | -1 | -5 | 1.3
C[C@@H]1CCCCO[C@H](CN(C)S(=O)(=O)c2cn(C)cn2)[C@@H](C)CN([C@H](C)CO)C(=O)c2cc(NC(=O)Nc3ccc4c(c3)OCO4)ccc2O1 | i | 3 | -1 | -2.4
CCCC#Cc1ccc([C@H]2[C@@H](CO)N3CCCCN(S(C)(=O)=O)C[C@H]23)cc1 | i | 1 | 9 | 2.2
C[C@H]1CN([C@@H](C)CO)C(=O)c2cc(NC(=O)Cc3cn(C)c4ccccc34)ccc2O[C@@H]1CN(C)Cc1ccc(-c2ccccc2)cc1 | i | 6 | 12 | 15
O=C(NCc1ccc(F)cc1)[C@H]1[C@H](CO)[C@H]2Cn3c(ccc(-c4cccnc4)c3=O)[C@@H]1N2 | i | 1 | 2 | -3.0
C[C@H](CO)N1C[C@H](C)[C@@H](CN(C)C)OCCCC[C@H](C)Oc2ccc(NS(=O)(=O)c3cccs3)cc2C1=O | i | 0 | 4 | -1.8
C[C@H](CO)N1C[C@H](C)[C@@H](CN(C)Cc2ccc(C(F)(F)F)cc2)Oc2ccc(NC(=O)CCCN(C)C)cc2CC1=O | i | -5 | -8 | 5.4

Some of these compounds in order of number of heavy atoms, lowest first:
SMILES | FGF22 binding | Ecoli rRNA inh | Ecoli rRNA inh OD600 | Ecoli rRNA inh RFP
COc1ccc(C#Cc2ccc([C@@H]3[C@H](CO)N4CCCCN(C)C[C@@H]34)cc2)cc1 | i | -2 | 6 | -2.5
O=S(=O)(c1ccccc1)N1C[C@@H]2[C@H](c3ccccc31)[C@H](CO)N2Cc1ccccn1 | i | -3 | -3 | 0.9
CC(C)NC(=O)Nc1cccc2c1O[C@@H](CN(C)Cc1ccc(Oc3ccccc3)cc1)[C@@H](C)CN([C@H](C)CO)C2=O | i | 4 | -1 | 3.1

(continued)
SMILES | FGF22 binding | Ecoli rRNA inh | Ecoli rRNA inh OD600 | Ecoli rRNA inh RFP
C[C@H](NC(=O)C[C@@H]1C[C@H]2c3cc(NS(=O)(=O)c4ccc(F)cc4)ccc3O[C@H]2[C@@H](CO)O1)c1ccccc1 | i | -4 | -26 | -1.6
Cc1ccc(S(=O)(=O)N[C@@H]2CC[C@H](CC(=O)N3CCN(c4ccccc4)CC3)O[C@@H]2CO)cc1 | i | -5 | -10 | -0.3
CO[C@@H]1CN(C)C(=O)c2cc(NC(=O)C3CC3)ccc2OC[C@@H](C)N(C)C[C@@H]1C | i | 3 | 0 | -0.3
O=C(C[C@@H]1CC[C@H]2[C@@H](COC[C@H](O)CN2C(=O)Nc2ccccc2)O1)NCc1ccncn1 | i | -3 | 0 | 2.0
CNC(=O)C[C@@H]1CC[C@@H]2[C@H](COc3ccc(NS(=O)(=O)c4ccc(F)cc4)cc3C(=O)N2C)O1 | i | 4 | 9 | -2.7
CCCC#Cc1ccc2c(c1)O[C@@H](CN(C)C(=O)C1CCC1)[C@H](C)CN([C@@H](C)CO)S2(=O)=O | i | -49 | -78 | -14
